RE007 growth inh – qHTS Assay for Inhibitors of the HIV-1 protein Vpr. hit rate 0.21% among 360,000. Potency, µM (series often up to 92.2 µM), inactives show at the highest dose activity change, negative = less growth. AID 651644, 2012. S. pombe RE007 Vpr strain, BacTiter-Glo ATP luminescence, 24 h; control for the full effect not named in the record; active = well fitted falling curve with a large enough effect; inconclusive = small, poorly fitted or top-dose-only effect; inactive = no such curve, though single readings can be large or run the other way;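 also: % is scaled to controls: 0 for no effect and ±100 for the full control effect; nearly all actives have a fitted effect of over 50% in size; the assay follows cell death caused by Vpr and the record does not say whether a fall means rescue or toxicity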
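Fission yeast strain RE007, carrying one chromosomally integrated HIV-1 vpr copy, was seeded at OD 0.01 in PMG+AL medium with 23 nL pinned compound. After 24 h at 30 °C and 99% humidity, viability was read by BacTiter-Glo luminescence.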
NS1 inh – qHTS Assay for Inhibitors of Influenza NS1 Protein Function; S. cerevisiae slowed by influenza A NS1, growth recovery by OD600; Potency, µM (highest dose often 46.1 µM), inactives show at the top dose activity, positive = more growth; hit rate 0.4% among 270,000; AID 2326, 2010; active means well fitted rising curve with a large enough effect; inconclusive means small, poorly fitted or top-dose-only effect; inactive means no such curve, though single readings can be large or run the other way; also: nearly all actives have a fitted effect of over 50% in size
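Compounds were scored for reversing the slow growth caused by influenza A NS1 in S. cerevisiae, measured by optical density at 600 nm. Assay medium contained 2% galactose at pH 6.0; NS1-free yeast of the same strain were the positive control.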
SARS PLpro yeast – qHTS of Yeast-based Assay for SARS-CoV PLP. hit rate 0.19% among 330,000. AID 485353, 2010. Potency, µM (titrated, usually from 32.9 µM), for the others: top-dose activity, positive = growth rescue. S. cerevisiae expressing SARS-CoV PLpro, growth rescue; control for the full effect not named in the record; active means well fitted rising curve with a large enough effect; inconclusive means small, poorly fitted or top-dose-only effect; inactive means no such curve, though single readings can be large or run the other way; also: 0% is about no effect; nearly all actives have a fitted effect of over 55% in size; growth read by luminescence after 48 h
2A StopGo – High Throughput Screening for Foot and Mouth Disease Virus Antivirals | human cells with a luciferase reporter of 2A StopGo recoding; control for the full effect not named in the record | Potency, µM (titrated, usually from 57.9 µM), inactives show top-dose signal change, negative = less light | hit rate 1.2% among 410,000 | AID 1159524, 2015; active = well fitted falling curve with a large enough effect; inconclusive = small, poorly fitted or top-dose-only effect; inactive = no such curve, though single readings can be large or run the other way; tested in HEK293T cells; also: % is scaled to controls: 0 for no effect and ±100 for the full control effect; nearly all actives have a fitted effect of over 45% in size; luciferase light after 4 h
MARV entry inh – qHTS for inhibitors of binding or entry into cells for Marburg Virus | Marburg virus pseudotyped entry inhibition, cell reporter; control for the full effect not named in the record; about a third of the inactives were read at about 46 µM | Potency, µM (titrated, usually from 37.8 µM), for inactives: at the highest dose activity change, negative = inhibition, hits mostly inhibitors | hit rate 1.8% among 300,000 | AID 540276, 2011; active = well fitted inhibition curve with a large enough effect; inconclusive = small, poorly fitted or top-dose-only effect, or effect the other way; inactive = flat fitted curve, though single readings scatter; tested in HEK293 cells; about a fifth of its hits are not listed in these tables; also: % is scaled to controls: 0 for no effect and ±100 for the full control effect; luciferase read-out
Cruzain inh noDet – qHTS Assay for Promiscuous and Specific Inhibitors of Cruzain (without detergent); purified cruzain, Z-FR-AMC fluorescence, no detergent; AID 1476, 2009; Cruzipain (Trypanosoma cruzi), P25779; Potency, µM, for the others: max response, negative = inhibition, actives largely listed as inhibitors; hit rate 2.3% among 200,000;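 also: plate controls were enzyme without inhibitor for no effect and buffer without enzyme for full effect; nearly all actives have a fitted effect of over 40% in size; top concentration of the series not given in the record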
Target sequence (P25779 123-467 limits assumed): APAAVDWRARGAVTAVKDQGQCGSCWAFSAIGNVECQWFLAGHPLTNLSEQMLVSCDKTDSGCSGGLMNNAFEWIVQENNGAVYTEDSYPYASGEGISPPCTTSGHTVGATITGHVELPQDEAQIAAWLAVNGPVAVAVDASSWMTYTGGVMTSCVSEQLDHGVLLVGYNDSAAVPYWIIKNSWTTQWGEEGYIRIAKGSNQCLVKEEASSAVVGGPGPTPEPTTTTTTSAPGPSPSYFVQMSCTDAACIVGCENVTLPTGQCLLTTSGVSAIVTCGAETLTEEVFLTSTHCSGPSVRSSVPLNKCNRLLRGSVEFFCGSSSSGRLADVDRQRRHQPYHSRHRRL
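Purified cruzain at 1.5 nM, pre-incubated 15 min with compound at room temperature in 100 mM sodium acetate pH 5.5, 5 mM DTT, 0.00005% Triton X-100. Reaction started with 2 uM Z-FR-AMC; AMC fluorescence increase over 60 s gives rate.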
Cruzain Triton – qHTS Assay for Promiscuous and Specific Inhibitors of Cruzain (with detergent); Cruzipain (Trypanosoma cruzi), P25779; purified cruzain, Z-FR-AMC fluorescence, 0.01% Triton; Potency, µM, inactives show max response, negative = inhibition, actives largely listed as inhibitors; hit rate 0.43% among 200,000;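 also: plate controls were neutral wells for no effect and buffer without enzyme for full effect; nearly all actives have a fitted effect of over 40% in size; top concentration of the series not given in the record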
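Detergent-containing arm of a paired screen for aggregation-based inhibition: 0.01% Triton X-100 present. Cruzain at 1.5 nM cleaved 2 uM Z-FR-AMC at pH 5.5 with 5 mM DTT; AMC fluorescence gain over 60 s measured activity.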
LASV entry inh – qHTS for Inhibitors of binding or entry into cells for Lassa Virus; Potency, µM (doses to about 37.9 µM), without a hit: at the top dose activity change, negative = inhibition, hits mostly inhibitors; Lassa virus pseudotype entry inhibition, cell reporter; control for the full effect not named in the record; hit rate 1.2% among 300,000; active means well fitted inhibition curve with a large enough effect; inconclusive means small, poorly fitted or top-dose-only effect, or effect the other way; inactive means flat fitted curve, though single readings scatter; tested in HEK293 cells; also: % is scaled to controls: 0 for no effect and ±100 for the full control effect; nearly all actives have a fitted effect of over 50% in size; luciferase read-out
Active calls of the source: *; ? = inconclusive; nt = not tested or not shown; & = joins results of further samples; [ ] = another dose, or the depositor's remark. Unless noted, calls follow the shape of the dose curve; as a rule, active = well fitted curve in the direction sought with a large enough effect; inconclusive = small, poorly fitted or top-dose-only effect, or another doubt; inactive = no such curve, though single readings can be large; an effect the other way counts as inactive or inconclusive. Potency is read from the fitted curve at half-maximal effect. Compounds as they come; 4.7% or so of the library scored in one or more.

SMILES,RE007 growth inh,NS1 inh,SARS PLpro yeast,2A StopGo,MARV entry inh,Cruzain inh noDet,Cruzain Triton,LASV entry inh
Cc1ccc(CNC(=O)c2sccc2-n2cccc2)cc1,-24%,-37%,-5%,-1%,?,-7%,-0.6%,-12%
CCOc1ccccc1N1CCN(C(=O)c2cc[n+]([O-])cc2)CC1,-27%,-9%,?,5%,11%,-8%,3.4%,7%
O=C1Oc2ccccc2C2(O)C3CCCCCC3C12 (stereo unspecified),1%,0%,0%,0%,0%,1%,3.1%,18%
c1ccc(N2CCN(c3nc4ccccc4n4cnnc34)CC2)cc1,2%,-4%,3%,?,nt,?,-9.2%,nt
CN(C)C(=O)OCC1COc2ccccc2O1 (stereo unspecified),-12%,3%,1%,17%,-3%[46.1 µM],nt,nt,13%[46.1 µM]
c1ccc(OCCOc2cccc3cccnc23)cc1,-10%,-3%,-2%,25%,0%,-8%,-2.2%,-1%
CCOC(=O)c1cnc2c(Cl)c(Cl)ccc2c1NCCN1CCOCC1,-24%,-6%,-2%,1%&-3%,-15%[46.1 µM],-1%,-1.3%,-3%&-1%[46.1 µM]
CC(=O)c1ccc(N2CCN(c3ccc(C(F)(F)F)cn3)CC2)cc1,-23%,3%,-22%,-27%,-3%,-12%,-3.0%,3%
COCCSc1nc(N)c2c3c(sc2n1)CN(C)CC3,-24%,-1%,0%,16%,?,nt,nt,23%[46.1 µM]
O=C(Cn1nnc(-c2ccccc2Cl)n1)Nc1ccc(Br)cc1,nt,nt,nt,23%,nt,-11%,-7.5%,12%[46.1 µM]
O/N=C/c1ccccc1Oc1ccc(Cl)cc1,-15%,-45%,-3%,-12%,-21%,nt,nt,-28%
Cc1c(Cl)cccc1NC(=S)N(CCCN1CCOCC1)Cc1cccs1,-11%,-7%,4%,-3%,?,-2%,0.1%,?
CCCCOc1ccc(N(CC(=O)NC2CCCC2)C(=O)CCC(=O)Nc2ccccn2)cc1,-6%,-5%,18%,-9%,?,?,-0.6%,-5%
CSc1nnc(-c2cnccn2)n1CCCN1CCCC1=O,-6%,-7%,-9%,-15%,1%,13%,4.9%,2%
Cc1nnc(-c2cnn(C)c2N)n1Cc1cccc(Cl)c1,8%,4%,8%,4%,8%[46.1 µM],-4%,3.6%,5%
COc1cc(OC)cc(C(=O)NCC(=O)OCc2csc(-c3ccccc3)n2)c1,-7%,-39%,-2%,12%,-2%,-6%,-9.6%,3%
CCCn1c(=O)c(C(=O)NNC(=O)c2cccc([N+](=O)[O-])c2)c(O)c2ccccc21,-9%,-10%,-4%,-4%,-2%[46.1 µM],nt,nt,2%[46.1 µM]
COc1cc(S(=O)(=O)Nc2cccc(C)c2)ccc1NC(=O)c1cccnc1,nt,-6%,4%,25%,?,9%,-4.0%,?
Cc1ccc(Cn2nc3c4cc(F)ccc4n(Cc4ccc(F)cc4)cc-3c2=O)cc1,-4%,7%,0%,-23%,nt,nt,nt,nt
Cc1nc2ccccc2c(=O)n1-c1ccc([N+](=O)[O-])cc1,11%,8%,2%,16%,?,nt,nt,?
O=C(c1ccc(N2C(=O)C3CCCCC3C2=O)cc1)N1CCCCC1 (stereo unspecified),?,13%,11%,-12%,?,5%,1.0%,4%
COc1ccccc1-n1nc(-c2ccccc2)c2cnc3c(F)cc(F)cc3c21,nt,nt,nt,-4%,-7%[46.1 µM],10%,7.5%,-13%[46.1 µM]
COc1ccc(OCC(=O)NNC(=O)c2ccccn2)cc1,-1%,-6%,1%,-8%,-25%,3%,7.1%,2%
O=C(NCCc1ccccc1)c1ccc(-n2cnnn2)cc1,-5%,-2%,0%,78%[activator],2%,15%,3.8%,?
CCC1C(=O)NCCN1Cc1nc(-c2ccc(C)s2)oc1C (stereo unspecified),7%,3%,1%,4%,?,nt,nt,27%[46.1 µM]
CC1(O)CCC2C3CCC4=CC(=O)CCC4(C)C34OC4CC21C (stereo unspecified),-8%,nt,nt,-11%,1%[46.1 µM],nt,nt,2%[46.1 µM]
COc1cc2c(cc1OC)C(C(=O)N(C)Cc1ccccc1)C(c1cccnc1)N(C)C2=O (stereo unspecified),-11%,nt,-2%,-12%,-1%[46.1 µM],nt,nt,-15%[46.1 µM]
Nc1nnnn1CC(=O)N/N=C/c1ccccn1,-1%,3%,1%,13%,15%[46.1 µM],nt,nt,11%
O=C(CN1CC(=O)Oc2ccccc21)OCC(=O)c1ccccc1,-20%,-34%,-11%,nt,-22%&-22%,-22%,6.4%,-10%
CCOC(=O)N1CCC(NC(=O)C2=CCN(S(=O)(=O)c3ccc(OC)cc3)CC2)CC1,10%,-1%,0%,-30%,nt,nt,nt,nt
CCC(=O)Nc1cccc(C(=O)OCC(=O)c2ccccc2Cl)c1,20%,17%,-2%,49%[activator],?,10%,-1.1%,5%
CNC(=S)N1N=C(c2ccc(C)cc2)CC1c1ccc(N(C)C)cc1 (stereo unspecified),23%,nt,0%,-5%,-4%,nt,nt,-1%
O=C1CSCN1c1cc(Cl)ccc1Cl,-13%,?,0%,2%,?,nt,nt,4%
CS(=O)(=O)c1cccc(-c2nnc(NC(=O)C3=COCCO3)o2)c1,15%,nt,1%,-2%,18%[46.1 µM],nt,nt,20%
Cc1ccccc1NC(=O)CCN1CCN(CCO)CC1,2%,?,5%,-6%,6%,nt,nt,17%
Cn1c(N2CCOCC2)c(C#N)c2ccccc21,-23%,-1%,-1%,11%,nt,nt,nt,nt
O=C(CSCc1cccc(Cl)c1)OCc1nc2ccsc2c(=O)[nH]1,6%,nt,-5%,-21%,8%[46.1 µM],nt,nt,-1%
CC(C)n1c(SCC(=O)Nc2ccccc2)nc2c1c(=O)n(C)c(=O)n2C,-3%,1%,4%,?,?,-3%,0.3%,-2%
O=C(Nc1cccc([N+](=O)[O-])c1)c1cnccn1,-14%,?,5%,10%,10%,-3%,-8.6%,12%
Cc1cccc(NC(=O)c2ccc(COc3ccccc3)o2)n1,-24%,-25%,-13%,5%,0%[46.1 µM],nt,nt,-12%[46.1 µM]
COc1ccc(-c2c(-c3ccc(OCC(=O)NN)cc3O)n[nH]c2C)cc1,-22%,?,4%,-14%,-17%[46.1 µM],nt,nt,-3%
N#Cc1nc(COc2cccc(Cl)c2)oc1NCCc1ccccc1,nt,nt,nt,-1%,-8%[46.1 µM],-19%,-13%,2%[46.1 µM]
COc1ccc(C2=NN(S(C)(=O)=O)C(c3ccc4nccnc4c3)C2)cc1 (stereo unspecified),0%,0%,-3%,51%[activator],?,-1%,-4.7%,?
Cc1cc(C)c2sc(NC(=O)c3ccc(S(=O)(=O)N4CCOCC4)cc3)nc2c1,nt,nt,nt,?,nt,23%,0.0%,-1%[46.1 µM]
CC(=O)N/C(=C/c1ccccc1)C(=O)NC(Cc1ccccc1)C(=O)O (stereo unspecified),-6%,-10%,?,2%,?,8%,-2.4%,5%
CCc1ccccc1NC(=O)CSc1nc2ccccc2n1CC(=O)N1CCCC1,27%,1%,21%,-4%,-6%,9%,3.4%,10%
CCOc1ccc(NC(=O)CCCN2C(=O)C(c3ccccc3)Oc3cccnc32)cc1 (stereo unspecified),15%,?,15%,5%&-7%,nt,17%,-5.5%,-12%[46.1 µM]
Nc1nc(CSC(=S)N2CCOCC2)nc(Nc2ccccc2)n1,9%,14%,21%,94%[activator],?,-9%,-4.1%,?
CC(C)n1c(=O)[nH]c(=O)n1C(C)C,5%,nt,nt,-9%,0%[46.1 µM],nt,nt,17%[46.1 µM]
Cc1ccc(F)cc1NC(=O)COC(=O)C1CCN(c2ccc(C(F)(F)F)cn2)CC1,?,nt,-21%,-11%,8%,nt,nt,8%
COc1ccc2c(c1)NC(c1ccc(OCC(C)C)cc1)=NC(c1ccncc1)=N2,nt,nt,nt,14%,-1%[46.1 µM],29%,-1.8%,12%[46.1 µM]
COc1ccc(NC(=O)C2Cc3ccccc3CN2C(=O)c2ccco2)cc1 (stereo unspecified),-18%,-2%,0%,62%[activator],23%[46.1 µM],nt,nt,22%
O=C(Nc1cccc(C(F)(F)F)c1)Nc1ccc(N2CCCC2)c(S(=O)(=O)Nc2ccccc2Cl)c1,2%,?,0%,17%,2.5µM*,6.3µM*,-0.1%,4µM*
CC(C)CC(NC=C1C(=O)OC(C)(C)OC1=O)C(=O)O (stereo unspecified),9%,-5%,-7%,2%,-4%,8%,1.7%,-1%
Cc1ccc(CSCCC(=O)NCCC2=CCCCC2)cc1,-18%,-14%,-30%,22%,38%,0%,-5.3%,-24%
Cc1cccn2cc(-c3ccc(Cl)cc3)nc12,?,-6%,-4%,-41%,?,nt,nt,?
CC(=O)c1c(C)n(-c2ccc(C)cc2C)c2ccc(O)cc12,-1%,-3%,1%,?,nt,nt,nt,nt
Cc1ccn(CC(=O)N2CCCC(N3CCN(c4cccc(Cl)c4)CC3)C2)n1 (stereo unspecified),0%,4%,-4%,0%,nt,nt,nt,nt
CC(=O)Nc1ccc(NC(=O)C/C(C)=N/NC(=O)c2cccc3ccccc23)cc1,3%,-14%,-3%,-4%,4%[46.1 µM],nt,nt,9%
COc1ccc(S(=O)(=O)NCCC(=O)NCc2ccc(F)cc2)cc1,-9%,4%,5%,23%,6%,0%,0.4%,5%
Cc1ccc2cc(CCNC(=O)Cc3cccs3)c(=O)[nH]c2c1,2%,-1%,-14%,-6%,4%,10%,1.0%,-2%

Compound activity (PubChem BioAssay)
